# CBX7 AlphaScr: CBX7 chromodomain binding inhibitors, primary screen, biochemical, AlphaScreen; Chromobox protein homolog 7 (Homo sapiens), O95931; actives 1.1% (n = 66,000); AID 1224903, 2016; normalised signal (fraction of DMSO) (no concentration beside the values); AlphaScreen His6-CBX7 / biotin-H3K27me3 peptide binding; stronger effect = lower value; in the data active = normalised signal below about 0.5;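 also: 100 nL library stock added to about 20 µL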
# Target sequence (O95931 whole entry, looked up): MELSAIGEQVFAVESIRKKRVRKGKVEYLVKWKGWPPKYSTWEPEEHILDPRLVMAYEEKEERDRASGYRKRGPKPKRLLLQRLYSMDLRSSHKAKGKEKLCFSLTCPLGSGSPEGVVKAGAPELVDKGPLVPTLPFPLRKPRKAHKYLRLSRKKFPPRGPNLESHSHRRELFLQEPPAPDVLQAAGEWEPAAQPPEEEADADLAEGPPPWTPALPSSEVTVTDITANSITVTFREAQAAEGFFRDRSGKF
# CBX7 AlphaScr z-score: also measured in CBX7 AlphaScr; calls as there; z-score; measured here: z-score of CBX7 signal; some inactives read as strong as hits; reference of the scale not given here;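 same signal on another scale; lower means less binding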
# * = called active by the depositor. These rows are one share of the data. The share of hits here may be higher or lower than overall.
SMILES,CBX7 AlphaScr,CBX7 AlphaScr z-score
O=C(Nc1nnc(/C=C/c2ccccc2)s1)c1ccccc1Cl,1,0.1
O=C(CC1Oc2ccccc2NC1=O)NCC1CCCO1 (centres undefined),0.98,-0.43
Cc1nc2ccccc2n1-c1nc(-c2ccco2)cc(C(F)(F)F)n1,0.96,-1.1
CC(NC(=O)C1CCN(c2nc3ccccc3o2)CC1)c1ccccc1 (centres undefined),1.1,2.5
COc1cccc(CNC(=O)c2ccc(CNc3c(N4CCOCC4)c(=O)c3=O)cc2)c1,1.4,2.5
Cc1cc2nc(-c3cccc(NC(=O)c4cccc5c(Br)cccc45)c3)oc2cc1C,1,0.59
CS(=O)(=O)N1CCC(C(=O)NCc2cccs2)CC1,1.1,3.6
CCOc1ccc2nc(N3CCCC(C(=O)NCCc4ccc(OC)c(OC)c4)C3)sc2c1 (centres undefined),1.1,0.75
CC(=O)N1CCc2cc(S(=O)(=O)NC(C(=O)NCc3ccccc3)C(C)C)ccc21 (centres undefined),1,1.3
CC1CCCC(NC(=O)Cn2nc(-c3ccccc3)ccc2=O)C1C (centres undefined),1,-0.021
Cc1cccc(-c2nc3c(cnn3-c3ccccc3)c(=O)n2-c2ccccc2)c1,0.67,-13
CCOC(=O)N1CCN(c2c(NCCCN(CC)CC)c(=O)c2=O)CC1,0.98,-0.63
NC(=O)CCn1nc(-c2ccccc2)c2ccccc2c1=O,0.98,-0.21
O=c1cc(N2CCc3ccccc32)[nH]c(=O)n1-c1ccc(Cl)cc1,1.1,0.68
CCOc1ccc(-n2nc(C(=O)Nc3ccccc3OC)c3ccccc3c2=O)cc1,0.97,-0.92
Cc1cc(C)n(-c2nc3ccccc3nc2Nc2ccc(C)c(F)c2)n1,2.2,24
Cc1oc(-c2cccs2)nc1C(=O)NCc1ccccc1Cl,0.89,-0.25
CCN(CC)CCNC(=O)c1sc2ncn(CC(=O)Nc3ccc(C)c(Cl)c3)c(=O)c2c1C,1.4,4
C=CCNC(=O)COc1ccc2c(c1)C(=O)CC(C)(C)O2,1.1,1.1
COc1ccc(C2CC(c3ccc(C)cc3)Nc3ncnn32)cc1OC (centres undefined),1,0.23
Nc1nnc(COc2ccc(Br)cc2)s1,1.1,1.5
Cc1ccccc1Cc1c(C)nc2nc(SCC(=O)NCc3ccccc3)nn2c1C,0.98,-0.79
Cn1c(=O)c(Cc2ccccc2C(F)(F)F)nc2ccccc21,0.97,-0.28
COc1ccc(Nc2c(-c3ccsc3)nc3ncccn23)cc1OC,1,0.0042
COc1ccc(C(=O)Nc2ccc3oc(-c4ccc(F)cc4Cl)nc3c2)cc1,1,0.98
# Carrying on:
SMILES,CBX7 AlphaScr,CBX7 AlphaScr z-score
O=C(Cn1nc(Cc2ccncc2)c2ccccc2c1=O)NCc1cccc(Cl)c1,1.2,2.4
O=C1c2ccccc2C(Nc2ccccc2)N1Cc1ccccc1 (centres undefined),0.9,-1.5
O=C(NCc1ccccc1)c1ccc2c(c1)N(Cc1ccccc1F)C(=O)c1ccccc1S2,0.96,-0.57
Cc1ccc(C(O)(c2ccccc2)c2nccn2C)cc1 (centres undefined),0.96,-1
Cn1cc(CCC(=O)NCCc2ccccc2)c2ccccc21,1,0.39
CCN(c1ccccc1)c1nc2nonc2n2c(C)nnc12,1,0.064
CCOC(=O)c1c(NC(=O)c2cccc(Cl)c2)sc2c1CCCCC2,1.2,7.4
Cc1ccc2cc(CCNC(=O)COc3ccc(Cl)cc3)c(=O)[nH]c2c1,0.94,-0.84
COc1ccc(CNC(=O)C2CCN(c3nc4ccccc4n3Cc3ccc(F)cc3)CC2)cc1,0.85,-1.7
CC(NC(=O)C1CCN(C(=O)c2cc3sccc3n2C)CC1)c1ccccc1 (centres undefined),0.93,-1.2
CN(C(=O)Cn1c(SCc2ccccc2F)nc2ccncc21)C1CCCCC1,0.99,-0.25
O=C(NCc1ccc(Cl)cc1)C1CCC(CNS(=O)(=O)c2cccc3cccnc23)CC1 (centres undefined),1,0.099
CC(CNC(=O)c1csc2c1CCCCC2)c1ccccc1 (centres undefined),1,0.49
Cc1cccc(NC(=O)C2NC(=O)CC2c2ccccc2)c1C (centres undefined),1.1,2.8
CN(C)S(=O)(=O)c1ccc(C(=O)Nc2sc3c(c2C(N)=O)CCCC3)cc1,0.94,-0.47
CCCOc1ccc(CNC(=O)c2ccc3nc(N4CCOCC4)sc3c2)cc1,1,1.2
O=C(Nc1cc(F)ccc1F)c1cccc2c1C(=O)N(Cc1cccnc1)C2,1,0.028
C=CCN1C(=O)c2ccccc2Sc2ccc(C(=O)N3CCN(Cc4ccccc4)CC3)cc21,0.88,-3.1
COc1ccc(N2CC(C(=O)NCC3CCNCC3)CC2=O)cc1 (centres undefined),0.93,-0.86
Cc1cccc(C)c1Nc1c(-c2ccccc2F)nc2ccc(Cl)cn12,1.1,0.1
COc1cc(OC)c(-n2cc(-c3ccc(OC)c(OC)c3)[nH]c2=O)cc1Cl,0.94,-1.4
O=C(Cc1ccccc1)Nc1ccc2oc(-c3ccc(F)cc3Cl)nc2c1,0.99,-0.31
CCc1ccc(N(C)S(=O)(=O)c2ccc3[nH]cc(C(=O)N4CCC(C)CC4)c(=O)c3c2)cc1,1.1,1.4
Cc1ccc2c(c1)-c1c(cnn1CC(=O)NC1CCC(C)CC1)CO2 (centres undefined),1.1,1.9
Cc1cc(C)nc(NC2=NCC(=O)N2c2cc(Cl)cc(Cl)c2)n1,1.1,1.2

# Next part, overlapping the part above by 2 compounds.
SMILES,CBX7 AlphaScr,CBX7 AlphaScr z-score
Cc1ccc2c(c1)-c1c(cnn1CC(=O)NC1CCC(C)CC1)CO2 (centres undefined),1.1,1.9
Cc1cc(C)nc(NC2=NCC(=O)N2c2cc(Cl)cc(Cl)c2)n1,1.1,1.2
CC(=O)NCCc1nc2ccccc2n1CCOc1ccc(C)cc1,1,0.33
CCOc1ccc(CCNC(=O)CN2C(=O)CCSc3ccccc32)cc1OCC,1,0.8
CNC(=O)c1cc(Nc2nnc(C)c3ccccc23)ccc1OC,0.9,-1.1
COCCCNC(=O)Cc1ccc(NC2=NC3CS(=O)(=O)CC3S2)cc1 (centres undefined),0.95,-0.51
C=CCc1c(C)nc2nc(SCC(=O)NCc3ccc(C)cc3)nn2c1C,1,0.49
CCOC(=O)C(CC)n1cnc2c(nnn2-c2ccc(OC)cc2)c1=O (centres undefined),0.96,-0.98
CCOc1ccc(N2CC(C(=O)Nc3ccccc3C(C)C)CC2=O)cc1 (centres undefined),1,0.91
Cc1ccc(NC(=O)c2cnn(-c3ccc(F)cc3)c2C2CCNCC2)cc1,1,1.9
COc1cccc(NC(=O)Nc2cccc(C)n2)c1,1.1,1.1
CC1CCCC(NC(=O)c2csc3c2CCCCC3)C1C (centres undefined),1.1,2.8
CCCN(CCC)S(=O)(=O)c1ccc2c(c1)N(CC(=O)NCCCOC(C)C)C(=O)CS2,0.99,-0.61
CCOc1ccc(-c2nc(C#N)c(NCc3ccc(Cl)cc3)o2)cc1,1.2,1.7
CCOc1ccc2nc(N3CCCC(C(=O)Nc4ccc(C(C)C)cc4)C3)sc2c1 (centres undefined),0.99,-0.21
O=C(CC1C(=O)N(c2ccccc2)C(=O)N1Cc1ccc2c(c1)OCO2)Nc1ccc(Cl)cc1 (centres undefined),0.88,-0.52
CC(=O)N1CCCc2cc(S(=O)(=O)N3CCN(c4ccccc4)CC3)ccc21,0.93,-0.58
CCn1c(SCC(=O)Nc2ccc(F)cc2F)nnc1-c1c[nH]c2ccccc12,1.1,0.66
COc1ccc2cc(CCNC(=O)c3cccc(OC)c3OC)c(=O)[nH]c2c1,1,1
O=C(NCc1ccccc1Cl)c1cnc2sccn2c1=O,0.88,-2.2
CCC(C)NC(=O)c1cc(=O)[nH]c2ccc(S(=O)(=O)N3CCCCCC3)cc12 (centres undefined),1,0.36
COc1ccc(NC(=O)c2cc3c(s2)-c2c(C)cccc2OC3)cc1Cl,1,0.14
COc1ccccc1C(=O)Nc1c2c(nc3c1CCC3)CCCC2,0.95,-0.69
CC(=O)c1ccc(N2CCN(C(=O)CCc3nc(-c4ccccc4F)no3)CC2)cc1,1,1.6
COc1ccc(-c2nc(C(=O)NCc3ccccc3OC)c(C)o2)cc1,0.98,-0.77
CCOc1cc2c(cc1OCC)C1c3ccccc3OCC(=O)N1CC2 (centres undefined),1,0.47
CCc1cccc(CC)c1NS(=O)(=O)c1ccc2[nH]c(=O)c(=O)[nH]c2c1,0.95,-0.07
# The list goes on:
SMILES,CBX7 AlphaScr,CBX7 AlphaScr z-score
O=C(NCCc1ccc(Cl)cc1)c1ccc2c(c1)NC(=O)C1CCCN21 (centres undefined),0.96,-0.17
Cc1c(Cl)cccc1N1CC(c2nc3ccccc3n2C(C)C)CC1=O (centres undefined),0.94,-1.1
COc1cccc(-c2nn(C)c3sc(C(=O)Nc4cc(C)ccn4)cc23)c1,1,1
CCc1nnc(NC(=O)c2ccc(S(=O)(=O)N3CCCCC3)cc2)s1,0.96,-0.91
Cc1cccc(C)c1OCC(=O)Nc1nc(-c2ccccc2)cs1,1.1,0.25
Cc1nc2c(C(=O)N3CCCC3)cnn2c(C)c1Cc1c(F)cccc1Cl,1,0.68
COc1ccc(C)cc1N(C)C(=O)c1cc2c(s1)-c1ccccc1OC2,0.92,-3.7
COc1cc(-c2nc(Nc3ccc(F)cc3F)c3ccccc3n2)cc(OC)c1OC,0.97,-0.91
CCOc1ccc(NC(=O)C(=O)NCC(C)O)cc1 (centres undefined),0.99,-0.29
O=C1CC(c2ccccc2)CC2=C1C(c1ccc([N+](=O)[O-])cc1)Nc1ccc(C(=O)c3ccccc3)cc1N2 (centres undefined),0.92,-0.33
COc1ccc(OC)c(NC(=O)c2ccc(CNc3c(N4CCC(C)CC4)c(=O)c3=O)cc2)c1,1.1,3
Cc1cc(NC(=O)NC(=O)c2ccc(Cl)cc2Cl)n[nH]1,0.85,-2.3
COc1cccc(NC(=O)CN(c2ccc(C(C)C)cc2)S(=O)(=O)c2c(C)nn(C)c2C)c1,0.94,-0.81
O=C(NCc1ccc(F)cc1)c1nc2c(nnn2Cc2ccc3c(c2)OCO3)c(=O)[nH]1,0.94,-1.4
CCOc1ccccc1N(C)C(=O)Cn1ncc2c1-c1ccccc1OC2,0.79,-6.1
CS(=O)(=O)N(Cc1ccc(Cl)cc1)c1ccc(C(=O)N2CCCCCC2)cc1,1,0.31
O=C(O)c1ccc(OC(O)Cn2c3ccccc3c3ccccc32)cc1 (centres undefined),1.1,0.85
Cc1c(CN(C)C(=O)c2cc(-c3ccccc3)nc3ccc(Br)cc23)cnn1C,1,0.64
O=C(NC1CCCC1)C1CCCN(C(=O)c2cnn(-c3ccccc3)c2-n2cccc2)C1 (centres undefined),1.2,1.5
Cc1nc2cc(C(F)(F)F)cc(Br)c2nc1C,1.2,1.5
O=C(NC1CCCc2ccccc21)c1csc2c1CCCC2 (centres undefined),1.1,2.5
CCc1ccccc1Nc1nc2ccccc2nc1NS(=O)(=O)c1ccc(Cl)cc1,0.83,-5
Cc1ccc(NC(=O)C(Cc2ccccc2)N2C(=O)c3ccccc3C2=O)c(C)c1 (centres undefined),0.99,-0.03
COc1cccc(-c2nc3cc(NC(=O)c4ccc(Cl)cc4Cl)ccc3o2)c1,0.88,-1.5
Cc1ccc(-c2nc(CS(=O)(=O)CC(=O)NCCCN3CCCC3)c(C)o2)cc1,1.1,0.17

# Reformatted as labelled records: entries from further up.
O=C(NCCc1ccc(Cl)cc1)c1ccc2c(c1)NC(=O)C1CCCN21 (centres undefined)
  CBX7 AlphaScr: 0.96; CBX7 AlphaScr z-score: -0.17
Cc1c(Cl)cccc1N1CC(c2nc3ccccc3n2C(C)C)CC1=O (centres undefined)
  CBX7 AlphaScr: 0.94; CBX7 AlphaScr z-score: -1.1
COc1cccc(-c2nn(C)c3sc(C(=O)Nc4cc(C)ccn4)cc23)c1
  CBX7 AlphaScr: 1; CBX7 AlphaScr z-score: 1
CCc1nnc(NC(=O)c2ccc(S(=O)(=O)N3CCCCC3)cc2)s1
  CBX7 AlphaScr: 0.96; CBX7 AlphaScr z-score: -0.91

# Next section.
SMILES,CBX7 AlphaScr,CBX7 AlphaScr z-score
O=C(Nc1cccnc1)c1cc(C2CC2)on1,0.73,-3.9
CCc1ccccc1NC(=O)c1c(Oc2ccc(F)cc2)nc(C)c(Cl)c1C,1,0.92
O=C(NCCc1c[nH]c2ccccc12)C1CCN(c2nc3ccccc3[nH]2)CC1,0.8,-2.4
Cc1nc2c(-c3ccccc3)c(C)nn2c(C)c1CCC(=O)Nc1ccc(Cl)cc1,1.1,2.5
Cn1c(C(=O)N2CCC(C(=O)N3CCCCC3)CC2)cc2sccc21,0.95,-0.83
COCCCNC(=O)c1ccc2c(c1)ncn2C1CCCCC1,1,0.52
COC(CNC(=O)c1ccc2c(c1)ncn2C1CCCCCC1)OC,1,0.49
CC1CCN(S(=O)(=O)c2cn(CC(=O)N3CC(C)CC(C)C3)c(=O)c3ccccc23)CC1 (centres undefined),1.1,0.66
CCOC(=O)c1c(NC(=O)c2cccc([N+](=O)[O-])c2)sc(C)c1C,0.98,-0.57
CCOc1ccc(-c2cc(C(=O)NCCN3CCCCC3C)c3ccccc3n2)cc1 (centres undefined),1.1,2

# A run of entries from further up:
SMILES,CBX7 AlphaScr,CBX7 AlphaScr z-score
CCOC(=O)c1c(NC(=O)c2cccc([N+](=O)[O-])c2)sc(C)c1C,0.98,-0.57
CCOc1ccc(-c2cc(C(=O)NCCN3CCCCC3C)c3ccccc3n2)cc1 (centres undefined),1.1,2
